# AF4-AF9 inh = blocks AF4 peptide binding to human AF9; P42568; AlphaScreen, biotin-AF4 peptide binding to FLAG-AF9; inhibition, % at 10 µM; 0.47% of 350,000 active;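 active = every replicate reaching a set inhibition limit, whatever the replicate mean, cut at about 25% in these data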;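 note: 0% = plate neutral control median and 100% = total signal loss; the record names both 10 and 1 µM as test concentration; the first replicate is given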
# Target sequence (P42568 whole entry, looked up): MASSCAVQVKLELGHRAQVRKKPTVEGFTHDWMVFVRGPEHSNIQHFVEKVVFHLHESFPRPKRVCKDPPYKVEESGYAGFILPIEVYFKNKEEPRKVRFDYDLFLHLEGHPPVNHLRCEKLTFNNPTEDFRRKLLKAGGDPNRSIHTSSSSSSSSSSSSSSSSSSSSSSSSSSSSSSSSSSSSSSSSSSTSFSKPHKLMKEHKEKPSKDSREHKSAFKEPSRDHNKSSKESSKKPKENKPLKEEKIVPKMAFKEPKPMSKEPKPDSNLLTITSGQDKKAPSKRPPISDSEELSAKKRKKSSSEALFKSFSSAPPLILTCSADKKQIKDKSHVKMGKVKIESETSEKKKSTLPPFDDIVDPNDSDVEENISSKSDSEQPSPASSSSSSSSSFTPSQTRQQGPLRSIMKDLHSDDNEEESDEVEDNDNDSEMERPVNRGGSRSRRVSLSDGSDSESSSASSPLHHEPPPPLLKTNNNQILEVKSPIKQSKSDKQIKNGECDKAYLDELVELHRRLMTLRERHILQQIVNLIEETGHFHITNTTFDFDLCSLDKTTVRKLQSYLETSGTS
# Ecoli rRNA inh = selective bacterial rRNA inhibition in E. coli. AID 720706. GFP signal change (wild-type ribosome), % (concentration not given with the values). E. coli WT GFP vs humanized-ribosome RFP mutants, fluorescence, 24 h; hits give low values; DMSO median 0, no signal -100. 1.6% of 350,000 active;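 active = significant combined selectivity score with lowered wild-type GFP, culture density cut under 30%, mutant RFP and density less affected; inactive = any of these conditions unmet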; note: one replicate is shown; some compounds called inactive have numbers as strong as hits
# Ecoli rRNA inh OD600 = further read-out of Ecoli rRNA inh, marked with its call; OD600 change, %; measured here: OD600 growth;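 optical density of the mix in the first replicate; 0 = DMSO median and -100 = no signal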
# Ecoli rRNA inh RFP = second read-out of Ecoli rRNA inh, no call of its own (marks repeat the call); RFP signal change, %; measured here: RFP humanized mutant strains;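 first replicate; 0 = DMSO median and -100 = no signal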
# * = called active by the depositor; & = joins results of further samples. A portion of the library; the hit share may differ from the screen's.
Ecoli rRNA inh,Ecoli rRNA inh RFP,AF4-AF9 inh,Ecoli rRNA inh OD600,smiles
0.0,3.9,2.4,10.9,CCC(=O)N1CC2(C1)CN(C(=O)Nc1ccccc1F)[C@H](CO)c1c2c2ccc(OC)cc2n1C
4.3,0.9,-2.8,10.9,CNC[C@@H]1Oc2ccc(NC(=O)c3ccncc3)cc2CC(=O)N([C@@H](C)CO)C[C@@H]1C
4.8,4.8,11.9,6.7,CC(C)N(C[C@H]1N[C@H](CO)[C@@H]1c1ccc(C2=CCCCC2)cc1)C(=O)CN(C)C
-0.7,-1.8,-1.1,3.9,CCCNC(=O)Nc1ccc2c(c1)OC[C@@H](C)N(C)C[C@H](C)[C@H](OC)CN(C)C2=O
4.6,2.6,-1.3,18.7,C[C@H](CO)N1C[C@H](C)[C@H](CN(C)Cc2ccc(C(=O)O)cc2)Oc2c(NC(=O)c3ccncc3)cccc2C1=O
17.2,2.4,-0.9,13.3,O=C1NC[C@H](CCCCN2C[C@H](Cc3ccccc3)N(CCc3ccc(O)cc3)C(=O)C2=O)N(CCc2ccc(O)cc2)C1=O
4.6,-0.1,0.9,4.2,CCCNC(=O)N1C[C@@H]2[C@H](c3ccccc31)[C@H](CO)N2Cc1ccc(OC)cc1
0.0,-0.5,2.0,1.5,O=C(C[C@H]1CC[C@H]2[C@@H](COC[C@@H](O)CN2S(=O)(=O)c2ccc(Cl)cc2)O1)NCCN1CCCCC1
5.1,-0.5,0.4,3.6,C[C@H](CO)N1C[C@H](C)[C@H](CN(C)S(C)(=O)=O)Oc2ccc(NC(=O)CCN3CCOCC3)cc2C1=O
-5.1,-2.0,1.9,-4.6,Cc1ccccc1-c1ccc2c(c1)O[C@H](CN(C)C)[C@@H](C)CN([C@H](C)CO)S2(=O)=O
2.5,-5.7,-12.3,17.9,O=C(C[C@@H]1CC[C@@H]2[C@H](COC[C@H](O)CN2S(=O)(=O)c2ccccc2)O1)N1CCOCC1
-55.0,-19.1,4.7,-77.5,CCc1nc2c(OCc3ccc(Cl)cc3Cl)cccn2c1N(C)C(=O)C1CC1
2.1,-2.4,5.7,-0.9,C[C@H](CO)N1C[C@H](C)[C@H](CN(C)C(=O)Nc2ccc3c(c2)OCO3)Oc2ncc(C#Cc3ccc(C(F)(F)F)cc3)cc2C1=O
-3.1,0.7,1.4,-2.6,C[C@@H]1CN([C@@H](C)CO)C(=O)c2cc(NC(=O)Nc3ccc(F)cc3)ccc2O[C@H]1CN(C)C(=O)Nc1ccc(F)cc1
2.9,-1.7,0.2,3.2,CCCN1C[C@H](C)[C@H](OC)CN(C)C(=O)c2ccc(NC(=O)C3CCOCC3)cc2OC[C@H]1C
-0.8,0.0,0.7,0.1,COc1ccc(S(=O)(=O)Nc2ccc3c(c2)CC(=O)N([C@H](C)CO)C[C@H](C)[C@@H](CN(C)Cc2ccc(Cl)c(Cl)c2)O3)cc1
-0.3,4.1,-1.8,15.6,O=C(C[C@@H]1CC[C@@H]2[C@H](COC[C@H](O)CN2C(=O)c2ccc(F)cc2)O1)Nc1nccs1
-0.6,0.7,-2.6,2.3,CN(C)C(=O)C[C@H]1C[C@H]2c3cc(NC(=O)C4CCOCC4)ccc3O[C@H]2[C@H](CO)O1
-6.5,-7.6,0.1,-11.5,O=C(C[C@@H]1CC[C@H]2[C@@H](COC[C@H](O)CN2Cc2ccccc2)O1)NCCc1ccccc1
8.8,13.0,-4.3,4.4,CON(C)C(=O)[C@H]1C[C@@H]2[C@H](C[C@@H](c3ccccc3)[C@H]1C)N(c1ccc(F)cc1)C(=O)N2CCCOc1ccccc1
5.3,-4.3,-13.8,3.9,C[C@@H]1CN([C@H](C)CO)C(=O)c2cc(-c3cncnc3)cnc2O[C@@H]1CN(C)C(=O)Cc1cccnc1
6.0,1.9,0.3,6.4,C[C@H]1CN([C@@H](C)CO)C(=O)c2cccc(NC(=O)Nc3ccc4c(c3)OCO4)c2O[C@@H]1CN(C)C
1.7,-3.0,-1.6,11.2,COc1ccc(S(=O)(=O)N[C@H]2CC[C@H](CCn3cc(C(C)C)nn3)O[C@H]2CO)cc1
-6.4,2.6,3.3,-13.8,COCC#Cc1ccc2c(c1)O[C@H](CN(C)Cc1ccccc1F)[C@@H](C)CN([C@H](C)CO)S2(=O)=O
-5.4,0.4,1.6,-1.6,Cc1noc(C)c1S(=O)(=O)N(C)C[C@H]1OCCCC[C@@H](C)Oc2ccc(NS(=O)(=O)c3ccc(Cl)cc3)cc2C(=O)N([C@@H](C)CO)C[C@H]1C

# Not a retest: four of the compounds above.
Ecoli rRNA inh,Ecoli rRNA inh RFP,AF4-AF9 inh,Ecoli rRNA inh OD600,smiles
6.0,1.9,0.3,6.4,C[C@H]1CN([C@@H](C)CO)C(=O)c2cccc(NC(=O)Nc3ccc4c(c3)OCO4)c2O[C@@H]1CN(C)C
1.7,-3.0,-1.6,11.2,COc1ccc(S(=O)(=O)N[C@H]2CC[C@H](CCn3cc(C(C)C)nn3)O[C@H]2CO)cc1
-6.4,2.6,3.3,-13.8,COCC#Cc1ccc2c(c1)O[C@H](CN(C)Cc1ccccc1F)[C@@H](C)CN([C@H](C)CO)S2(=O)=O
-5.4,0.4,1.6,-1.6,Cc1noc(C)c1S(=O)(=O)N(C)C[C@H]1OCCCC[C@@H](C)Oc2ccc(NS(=O)(=O)c3ccc(Cl)cc3)cc2C(=O)N([C@@H](C)CO)C[C@H]1C

# (cont.)
Ecoli rRNA inh,Ecoli rRNA inh RFP,AF4-AF9 inh,Ecoli rRNA inh OD600,smiles
-3.1,5.7,2.7,-11.6,C[C@H](CO)N1C[C@H](C)[C@@H](CN(C)Cc2ccc(Cl)c(Cl)c2)Oc2ccc(NC(=O)CCCCCC(=O)Nc3ccccc3N)cc2CC1=O
10.4,3.6,-0.3,17.2,O=c1c(-c2ccco2)nc2ccccc2n1C(c1ccccc1)c1nc2ccccc2[nH]1 (configuration not stated)
1.2,-2.1,-0.2,2.3,CN(C)C(=O)C[C@H]1CC[C@@H](NC(=O)C2CCOCC2)[C@H](CO)O1
10.2,-2.7,-1.5,13.5,COCCNC(=O)C1(C)CCN(C(=O)COc2ccc(Cl)cc2Cl)C1 (configuration not stated)
-5.8,1.3,7.1,-19.1,O=C(C[C@@H]1CC[C@@H]2[C@H](COC[C@H](O)CN2S(=O)(=O)c2cccc(Cl)c2)O1)NC1Cc2ccccc2C1
-30.9,29.5,-4.2,-55.2,O=C(Nc1cccc(F)c1)N1CC(=O)N2[C@H](C1)[C@@H](c1ccc(-c3cccc(F)c3)cc1)[C@@H]2CO
0.5,12.0,-0.2,8.8,CC(C)(C)[S@](=O)N1Cc2cc(C(=O)NCc3ccncc3)nc(-c3cccc(-c4ccc(C#N)cc4)c3)c2[C@@H]1CCO
2.9,-10.3,-2.5,0.4,CC(C)NC(=O)c1cc(C2CCCCN2S(=O)(=O)c2ccccc2)on1 (configuration not stated)
1.6,-2.1,1.5,5.8,O=C(CC[C@H]1O[C@@H](n2ccc(=O)[nH]c2=O)[C@H](O)[C@@H]1O)NC1CCN(Cc2ccccc2)C1 (some centres not stated)
-0.6,-0.9,0.0,-0.2,CCNC(=O)[C@@H]1[C@@H](CO)[C@@H]2Cn3c(ccc(-c4cccc(OC)c4)c3=O)[C@@H]2N1Cc1nccs1
4.0,0.2,-1.6,6.8,CC(C)NC(=O)N(C)C[C@H]1Oc2ncc(-c3ccc(C(=O)N(C)C)cc3)cc2C(=O)N([C@H](C)CO)C[C@@H]1C
-0.7,-2.0,-2.1,-1.7,O=C(C[C@@H]1CC[C@@H](NC(=O)Nc2ccccc2)[C@@H](CO)O1)NCc1cccc(F)c1
-1.8,-1.7,-1.1,-0.2,COC(=O)C[C@H]1CC[C@H]2[C@@H](COc3ccc(NC(=O)c4ccc(OC)cc4)cc3C(=O)N2C)O1
0.2,-2.7,0.7,-0.1,C[C@@H]1CN([C@@H](C)CO)C(=O)c2cc(C3=CCCCC3)cnc2O[C@@H]1CN(C)C(=O)c1ccncc1
8.7,-4.0,-5.5,15.8,CN(C)C1CN(Cc2cn(Cc3cccc(Cl)c3)nn2)S(=O)(=O)C1 (configuration not stated)
2.9,-1.7,-2.0,34.4,CN(C)CC#Cc1ccc([C@H]2[C@@H](CO)N3CCCCN(C(=O)CN(C)C)C[C@@H]23)cc1
0.0,3.2,-0.1,4.2,COc1ccc(NC(=O)C2(C)Cc3c(-c4cccc(C(N)=O)c4)ccnc3O2)cn1 (configuration not stated)
0.1,-0.6,0.3,10.9,COc1ccccc1CN1CC[C@@H]2[C@H](CO)Nc3ccc(-c4cccc(C(=O)N(C)C)c4)cc3[C@@H]21
4.8,-1.8,18.0,-0.3,C[C@@H]1CN([C@@H](C)CO)S(=O)(=O)c2ccc(-c3ccc(C(=O)N(C)C)cc3)cc2O[C@H]1CN(C)C(=O)C1CCOCC1
-7.3,10.4,5.3,-13.6,COc1ccc(C(=O)N2C[C@H]3[C@@H](c4ccccc42)[C@@H](CO)N3Cc2ccc3c(c2)OCO3)cc1
0.8,1.2,0.3,5.8,CN1CCN(C(=O)C[C@@H]2CC[C@H]3[C@@H](COc4ccc(NC(=O)c5cccs5)cc4C(=O)N3C)O2)CC1
-2.6,0.0,-1.7,15.9,O=C(C[C@@H]1C[C@@H]2c3cc(NC(=O)Cc4ccncc4)ccc3O[C@@H]2[C@H](CO)O1)NCc1ccc2c(c1)OCO2
4.7,-2.6,-7.9,15.4,Cc1noc(C)c1NC(=O)N(C)C[C@@H]1Oc2ncc(C3=CCCC3)cc2C(=O)N([C@H](C)CO)C[C@@H]1C
6.4,-0.3,-2.9,7.4,C[C@H]1CN([C@@H](C)CO)C(=O)c2cc(C#CC3CCCCC3)cnc2O[C@H]1CN(C)Cc1cncnc1
-2.2,2.0,1.7,-11.4,Cc1cc(C(=O)Nc2ccc3c(c2)C(=O)N(C)[C@H]2CC[C@H](CC(=O)NCc4ccc(-c5ccccc5)cc4)O[C@H]2CO3)no1

Ecoli rRNA inh,Ecoli rRNA inh RFP,AF4-AF9 inh,Ecoli rRNA inh OD600,smiles
1.1,-2.7,2.6,-0.6,CNC[C@@H]1Oc2ccc(NC(=O)Cc3cn(C)c4ccccc34)cc2C(=O)N([C@@H](C)CO)C[C@H]1C
-17.1,30.9,6.9,-50.5,CN1c2ccc(-c3ccccc3)cc2[C@@H]2[C@@H](CCN2C(=O)c2ccccc2)[C@@H]1CO
-1.7&4.9,-0.1&-2.1,-0.5,-0.4&6.5,N#Cc1ccc(-c2ccc(C3[C@@H]4CN(C(=O)C5CC5)C[C@H]3N4)cc2)cc1 (some centres not stated)
-1.9,20.3,-0.8,-58.4,Cc1ccccc1-c1ccccc1[C@H]1[C@@H](CO)N(C(=O)c2cccc(F)c2)[C@H]1C#N
-0.8,-0.2,-1.0,1.7,Cc1cccc(S(=O)(=O)N(C)C[C@H]2OCc3cn(nn3)CCCC(=O)N([C@@H](C)CO)C[C@H]2C)c1
15.2,4.1,3.0,21.2,COc1ccc2cc(C3CC=C(COC(C)=O)CN3S(=O)(=O)c3ccccc3[N+](=O)[O-])n(C(=O)OC(C)(C)C)c2c1 (configuration not stated)
-27.4,19.6,2.6,-60.5,O=C(Nc1ccc(F)cc1)N1CC(=O)N2[C@H](C1)[C@@H](c1ccc(C#CC3CC3)cc1)[C@@H]2CO
-1.0,-1.3,-2.0,-0.1,O=C(C[C@H]1C[C@H]2c3cc(NC(=O)Nc4ccc(C(F)(F)F)cc4)ccc3O[C@H]2[C@H](CO)O1)NCC1CC1
3.5,-1.7,-0.2,2.5,NS(=O)(=O)c1cccc(NC(=O)COC(=O)c2ccc(S(=O)(=O)N3CCOCC3)cc2)c1
-20.8,0.8,1.1,-43.9,O=C(C[C@@H]1CC[C@@H]2[C@H](COC[C@H](O)CN2S(=O)(=O)c2ccc(F)cc2)O1)NCc1ccc(Cl)c(Cl)c1
1.2,-1.4,-0.3,2.3,O=C(N[C@H]1CC[C@H](CCn2cc(C3(O)CCCC3)nn2)O[C@@H]1CO)C1CCCCC1
1.0,0.1,-1.0,-3.9,COc1cccc(S(=O)(=O)N[C@@H]2CC[C@H](CC(=O)NCc3ccc(F)cc3)O[C@H]2CO)c1
7.9,-1.3,-1.1,2.0,CC(C)(C)NC(=O)C1(C)CCC(=O)N1C1CC1 (configuration not stated)
10.8,0.3,3.1,3.4,C[C@H]1Cn2cnc(C(=O)N3CCN(c4ccccc4)CC3)c2C(=O)N1
-7.7,-1.3,-4.0,-6.3,O=C(Nc1ccc(Cl)cc1)N[C@H]1CC[C@H](CCNC(=O)c2cc(Cl)cc(Cl)c2)O[C@@H]1CO
-7.6,4.4,9.2,-33.8,Cc1ccc(-c2ccc3c(c2)O[C@@H](CN(C)C(=O)C2CCC2)[C@H](C)CN([C@@H](C)CO)S3(=O)=O)cc1
-1.5,0.0,1.0,0.2,COCC(=O)Nc1ccc2c(c1)C(=O)N(C)C[C@@H](OC)[C@H](C)CN(C(=O)c1cnccn1)[C@H](C)CO2
3.3,3.1,-1.7,3.5,CCCc1cn(CC[C@H]2CC[C@H](NC(=O)CCN3CCCCC3)[C@H](CO)O2)nn1
1.9,-1.5,-0.1,-0.8,CNC[C@H]1Oc2c(NC(=O)Nc3ccc(OC)cc3)cccc2C(=O)N([C@@H](C)CO)C[C@H]1C
5.6,-3.4,-4.2,12.1,CC(=O)N(C)C[C@H]1Oc2ncc(-c3cccnc3)cc2C(=O)N([C@@H](C)CO)C[C@H]1C

# High-throughput results as filed in PubChem BioAssay.
